miR-21 reporter – miR-21 reporter, rising signal. HeLa miR-21 FLuc reporter, luciferase, 48 h. Potency, µM (doses to about 38.3 µM), inactives show at the highest dose reporter change, positive = more light. 340,000 tested, under 10 active. AID 2288; active = well fitted rising curve with a large enough effect; inconclusive = small, poorly fitted or top-dose-only effect; inactive = no such curve, though single readings can be large or run the other way;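 note: % of control where 0% means no effect; miR-21 action dims this reporter so a rising signal means less miR-21 action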
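Using DMEM plus 10% FBS, HeLa miR-21-FLuc cells are incubated with test compounds (final up to about 40uM) for 48 hours; firefly luciferase signal is then imaged following reagent-mediated lysis.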
Starred values were filed as active, the others as inactive; u = inconclusive; [ ] = dose if it differs, or a comment. Some of the compounds tested; the hit share may differ from the screen's.

SMILES	miR-21 reporter
O=C(Cn1ncc2c3ccccc3n(Cc3ccccc3F)c2c1=O)NCc1ccccc1Cl	0.8%
COc1cccc(-n2c(=O)c3cc(OC)c(OC)cc3n(CC(=O)Nc3ccccc3)c2=O)c1	-0.5%
O=C(c1ccccc1F)N1c2ncnn2C2(CCCCC2)[C@@H]2CCCC[C@@H]21	u
Cc1ccccc1Cn1nnc2c(=O)[nH]c(C3CCN(C(=O)c4ccc(F)cc4)CC3)nc21	-7.4%
Fc1ccc(CNc2nc(-c3ccccc3)cc(C(F)(F)F)n2)cc1	12.9%
Cc1ccc(C(C)C)c(OCC(=O)Nc2ccc(-c3nc4ncccc4o3)cc2C)c1	-3.1%
CC(C)n1c(=N)c(C(=O)NC2CCCCC2)cc2c(=O)n3ccccc3nc21	0.2%
Cc1nn2c(=O)cc(COC(=O)C(c3ccccc3)c3ccccc3)nc2s1	1.8%
O=C(NCc1ccc2c(c1)CCN2C(=O)c1ccccc1)Nc1cc(F)ccc1F	u
CCOC(=O)c1c(C)[nH]c(C)c1S(=O)(=O)NCC(=O)NCc1ccccc1Cl	-2.5%
O=C(c1cnc2cc(-c3ccccc3)nn2c1)c1cc([N+](=O)[O-])ccc1O	27.8%
CCCNC(=O)C(=O)NCC(c1ccc2c(c1)OCO2)N1CCOCC1 (stereo unspecified)	-0.3%
CC1=C(C(=O)Nc2ccc(C)cc2C)C(c2ccccc2)n2nc(SCC(=O)c3ccc(C)cc3)nc2N1 (stereo unspecified)	0.1%
Cc1ccc(F)cc1NC(=O)Cn1c(C)cc(C)c(C#N)c1=O	-7.9%
CC(C)Sc1ncc(Cl)c(C(=O)Nc2ccc(S(=O)(=O)N3CCCCC3)cc2)n1	12.9%
Cc1oc2c(C)c3oc(=O)c(CC(=O)N4CCCCC4)c(C)c3cc2c1C	4.7%
CN(C(=O)CSc1nc2ccc(NC(=O)COc3ccc(F)cc3)cc2s1)c1ccccc1	u
Cc1ccc(CNC(=O)CCCc2nnc3n(CC(C)C)c(=O)c4sccc4n23)cc1	0.8%
Cn1c(=O)c2c(ncn2CC(=O)Nc2cccc(Cl)c2Cl)n(C)c1=O	1.3%
CC(C)c1ccc(NC(=O)C2CCCN(S(=O)(=O)c3ccc4[nH]c(=O)ccc4c3)C2)cc1 (stereo unspecified)	-7.5%
Cc1cccc(CCNC(=O)c2ccc3c(c2)N(Cc2ccccc2F)C(=O)c2ccccc2S3)c1	11.9%
COc1ccc(S(=O)(=O)Nc2cc3c(C(=O)OC(C)C)c(C)oc3c3ccccc23)cc1	9.7%
CCN(CC)C(=O)C1=C(C)Nc2nc3ccccc3n2C1c1cccc(Cl)c1 (stereo unspecified)	2.4%
COc1ccc(-c2cc(C(=O)Oc3cccc(C)c3C)c3ccccc3n2)cc1	-17.5%
CCCCn1c(=O)nc2n(-c3ccc(Br)cc3)c3ccccc3cc-2c1=O	0.4%
CCC(=O)N1CCCc2cc(S(=O)(=O)N3CCC(C(=O)Nc4ccccc4CC)CC3)ccc21	-6.5%
O=C(NCCCN1CCN(c2ccc(F)cc2)CC1)c1sc2ncccc2c1-n1cccc1	5.7%
COc1ccc([C@]23Cc4cc(OC)c(OC)cc4C(O2)c2c(cc(-c4ccccc4)oc2=O)O3)cc1	-9.8%[7.66 µM]
O=C(NCc1ccc(F)cc1)C1CCCCN1S(=O)(=O)c1ccc(F)cc1 (stereo unspecified)	-0.8%
CCCCN(CCCC)CCNC(=O)c1cc(=O)[nH]c2ccc(S(=O)(=O)N3CCCCCC3)cc12	-3.0%
Cc1cccc(NC(=O)c2sc3nc(-c4ccccc4)cn3c2C)c1C	-40.8%
Cc1ccc2nc(-c3cccs3)c(Nc3c(C)cccc3C)n2c1	-0.9%
Cc1ccc(S(=O)(=O)Nc2ccc3nc(-c4cccc(Cl)c4)oc3c2)cc1	-9.5%
CN(C)S(=O)(=O)c1ccc2c(c1)N(CC(=O)N1CCN(c3ccccc3F)CC1)CCS2	20.8%
CCOC(=O)c1c(S(=O)(=O)NCC(=O)N2CCN(c3cccc(Cl)c3)CC2)c(C)n(C)c1C	u
Cc1ccc(C)c(NC(=O)CSc2nnc(-c3cc4occc4n3C)n2-c2ccccc2C)c1	14.8%
Cc1nn(C)c2c1c(C(F)(F)F)cc(=O)n2C(C)C(=O)NCc1ccccc1Cl (stereo unspecified)	4.6%
Cc1ccc2c(c1)-c1onc(C(=O)N3CCN(c4cc(C)ccc4C)CC3)c1CO2	-38.0%
CCCOc1ccc(/C=N/NC(=O)c2c(-c3ccccc3)noc2C)cc1OC	0.2%
CCC(C)(C)NC(=O)C1CCN(S(=O)(=O)c2ccc3c(c2)CCCN3C(C)=O)CC1	1.1%
COc1ccc(-c2cc(C(C)=O)c(C)n2CCC(=O)NCc2ccccc2OC)cc1	1.2%
Cc1ccc(-c2nc(C)c(CCNC(=O)c3ccccc3Br)s2)cc1	-35.5%
COc1ccccc1N1CCN(c2cc(C)nc3c(-c4ccc(Cl)cc4)c(C)nn23)CC1	-0.8%
CCc1ccc(C(=O)COC(=O)C(NC(=O)C2CCC(C)CC2)C(C)C)cc1 (stereo unspecified)	0.8%
COc1ccccc1CNC(=O)c1ccc2c(c1)CCN2S(=O)(=O)c1ccccc1	11.1%
CCOc1ccc(OCC)c(NC(=O)c2nnn(CC(=O)Nc3ccc(C)cc3C)c2N)c1	-0.9%
N#C/C(=C/c1ccc(Cl)cc1Cl)c1nc2ccccc2c(=O)[nH]1	-2.0%
COc1cccc(NC(=O)C2CCCN(S(=O)(=O)c3cn(C(C)C)cn3)C2)c1 (stereo unspecified)	-6.8%
CCC(=O)N1c2ccccc2CC1C(=O)NCc1cccc(C)c1 (stereo unspecified)	3.7%
CCn1cc(C(=O)NCc2ccc(C)cc2)c(=O)c2cc(S(=O)(=O)N3CCc4ccccc4C3)ccc21	2.6%
CCc1ccc(NC(=O)N2CCOc3ccc(Cl)cc32)cc1	-8.0%
CCOC(=O)c1cc(-c2ccccc2)n(CCCC(=O)Nc2cccc(C)c2C)c1C	-1.0%
CCc1cccc(C)c1Nc1c(-c2ccc(N(C)C)cc2)nc2cnccn12	15.3%
CCCc1cnc2c(c1SCC(=O)Nc1ccccc1F)c(=O)n(C)c(=O)n2C	u
Cc1ccc(C(C)C)c(OCC(=O)Nc2ccc(S(=O)(=O)Nc3onc(C)c3C)cc2)c1	-7.3%
Cc1ccccc1-n1c2nc(=O)[nH]c(=O)c-2cc2c(Cl)cccc21	20.1%
Cc1cc(C)c(NC(=O)Cn2c(=O)n(Cc3ccc4c(c3)OCO4)c(=O)c3ccc(C(=O)NC4CCCCC4)cc32)c(C)c1	-14.2%
O=C(Nc1ccc(F)cc1F)c1cc(S(=O)(=O)N2CCCCC2)c[nH]1	-1.3%
Cc1cc(=O)[nH]c2nnc(SCC(=O)Nc3ccc(OC(F)(F)F)cc3)n12	-6.2%
CCN(CC)CCOC(=O)c1ccc(NC(=O)CSc2cc(=O)n(CC)c3ccccc23)cc1	u

Following part.
SMILES	miR-21 reporter
Cc1ccc(C)c(N2CCN(CCCNC(=O)c3cnn(-c4ccc(F)cc4)c3C3CCN(C(=O)OC(C)(C)C)CC3)CC2)c1	-0.7%
COc1ccccc1OCCCn1c(C2CC(=O)N(c3ccc(F)cc3)C2)nc2ccccc21 (stereo unspecified)	-5.7%
CC1Cc2cc(S(=O)(=O)NCCc3ccc(Cl)cc3)ccc2N1C(=O)C1CCC1 (stereo unspecified)	6.1%
CCN(C(=O)CSc1nc2ccccc2n1Cc1ccc(F)cc1Cl)c1ccccc1	-10.3%
COc1cccc(N2C(=O)C(CC(=O)Nc3cccc(F)c3)N(C3CCCC3)C2=O)c1 (stereo unspecified)	3.7%
CCOC(=O)c1ccc(NC(=O)c2ccc3c(c2)c(C)c(C)n3Cc2ccc(F)cc2)cc1	-2.9%
CCOC(=O)c1c(C)[nH]c(C)c1S(=O)(=O)N1CCC(C(=O)NCc2cccc(C)c2)CC1	3.5%
COc1cccc(Cn2cnc3c2c(=O)n(C)c(=O)n3C)c1	11.6%
Cc1ccc(C(=O)O)cc1NC(=O)c1nsc2ccccc12	-34.4%
O=C1CS(=O)(=O)C2(C(=O)N(Cc3ccccc3)c3ccccc32)N1c1ccc(F)c(Cl)c1 (stereo unspecified)	-0.5%
CCN(CC)S(=O)(=O)c1ccc(N2CCCCS2(=O)=O)cc1	-13.6%
Cc1ccc(NC(=O)CSc2nnc3nc(C)cc(C)n23)cc1	-0.6%

Quoted from the listing.
For miR-21 reporter, Cc1ccc(C)c(N2CCN(CCCNC(=O)c3cnn(-c4ccc(F)cc4)c3C3CCN(C(=O)OC(C)(C)C)CC3)CC2)c1 reads -0.7%
For miR-21 reporter, CCN(CC)S(=O)(=O)c1ccc(N2CCCCS2(=O)=O)cc1 reads -13.6%

Carrying on.
SMILES	miR-21 reporter
CCc1nnc2n1N(C(C)=O)C(c1ccc(C(C)(C)C)cc1)=C(C(C)=O)S2	u
CCc1ccccc1NC(=O)CSc1nc2c(c(=O)[nH]1)CN(Cc1ccccc1OC)CC2	-1.1%
CCOC(=O)CNc1ncnc2c1nnn2C	-0.9%
Cc1ccc(OCCCn2c(-c3ccc(Cl)cc3)nc3ccccc3c2=O)cc1C	0.4%
CCOC(=O)c1c(S(=O)(=O)N2CCC(C(=O)N3CCN(c4cc(C)ccc4C)CC3)CC2)c(C)n(C)c1C	u
CCC(C)NC(=O)C1CCN(S(=O)(=O)c2ccc3c(c2)CCCN3C(C)=O)CC1 (stereo unspecified)	0.7%
O=C1CCCC2=C1C1O[C@](CCCCN3C(=O)c4ccccc4C3=O)(Cc3ccccc31)O2	0.6%[7.66 µM]
Cc1ccc(C)c(CN2CCC(CNC(=O)c3cc4ccc5cccnc5c4[nH]3)CC2)c1	-0.5%
CCn1c(=O)c2cc(C(=O)NCc3ccc(F)cc3Cl)sc2c2ccccc21	0.6%
CC(=O)N1CCOc2cc(S(=O)(=O)N(C)Cc3ccccc3)c(Cl)cc21	15.6%
O=C(Nc1ccc(Cl)cc1)c1cc(S(=O)(=O)N2CCCc3ccccc32)ccc1F	13.5%
COC(=O)c1ccc(NC(=O)c2cnn(-c3ccc(Cl)cc3)c2C2CCN(C(=O)OC(C)(C)C)CC2)cc1	1.8%
Cc1ccc(NC(=O)Cn2cc(S(=O)(=O)Cc3ccc(F)cc3)c3ccccc32)cc1Cl	u
O=C(Nc1cc(F)ccc1F)C1COc2ccccc2C1 (stereo unspecified)	-25.4%
COc1ccc(Cn2c(C(=O)O)c(CNCc3ccccc3F)c3ccc(OC)cc32)cc1	17.3%
COC(=O)C(C)Sc1nc2c([nH]c3ccccc32)c(=O)n1-c1ccc(OC)cc1 (stereo unspecified)	-6.4%
O=C(NCc1ccccc1Cl)C1CCN(S(=O)(=O)c2ccc3c(c2)CCCN3C(=O)C2CCC2)CC1	20.4%
COC(=O)c1scc(-c2ccc(C)cc2)c1S(=O)(=O)Nc1ccc(NC(C)=O)cc1	23.8%
Cc1c(CCNS(=O)(=O)c2ccccc2)sc2nc(-c3ccc(Cl)cc3)nn12	19.9%
COc1ccc(C2CC(=O)N(CC(=O)Nc3ccc(C(F)(F)F)cc3)c3ccccc3S2)cc1 (stereo unspecified)	-31.7%
CCCc1cc(=O)[nH]c(Nc2cc(Cl)cc(Cl)c2)n1	u
COC(=O)c1ccc2c(c1)N(Cc1ccc(F)cc1)C(=O)c1ccccc1S2	-4.8%
CSc1cccc(NC(=O)Cn2c(=O)n(Cc3ccccc3)c(=O)c3sc4ccccc4c32)c1	2.2%
Cc1cc(C)c(NC(=O)CN2C(=O)c3cccnc3Oc3ccc(C)cc32)c(C)c1	-1.5%

A second format for some results above.
structure | miR-21 reporter
CCN(C(=O)CSc1nc2ccccc2n1Cc1ccc(F)cc1Cl)c1ccccc1 | -10.3%
COc1cccc(N2C(=O)C(CC(=O)Nc3cccc(F)c3)N(C3CCCC3)C2=O)c1 (stereo unspecified) | 3.7%
CCOC(=O)c1ccc(NC(=O)c2ccc3c(c2)c(C)c(C)n3Cc2ccc(F)cc2)cc1 | -2.9%
CCOC(=O)c1c(C)[nH]c(C)c1S(=O)(=O)N1CCC(C(=O)NCc2cccc(C)c2)CC1 | 3.5%
COc1cccc(Cn2cnc3c2c(=O)n(C)c(=O)n3C)c1 | 11.6%
Cc1ccc(C(=O)O)cc1NC(=O)c1nsc2ccccc12 | -34.4%

Next entries.
SMILES	miR-21 reporter
COc1cc(C2c3c(-c4ccccc4O)n[nH]c3C(=O)N2CCO)ccc1OCc1ccccc1 (stereo unspecified)	0.4%
COc1ccc(NC(=O)CSc2nc(C)cc(C)c2C(=O)Nc2ccccc2OC)cc1	1.6%
COc1cc(C(=O)N2CCc3c([nH]c4ccccc34)C2c2ccc(C)cc2)cc(OC)c1OC (stereo unspecified)	-8.7%
COc1cc(NC(=O)N2CCC(CN3CCOCC3)CC2)cc(OC)c1OC	2.3%
COc1ccc(-c2noc(CSc3nnc(C)n3-c3ccc(OC)cc3)n2)cc1	0.9%
COc1cccc(NC(=O)C(=O)NCC(c2cccnc2)N2CCN(c3ccccc3)CC2)c1 (stereo unspecified)	3.2%
Cc1ccc2cccc(NC(=O)c3ccc(-c4ccc(Br)cc4)o3)c2n1	-4.1%
CCn1c(=O)n(-c2ccc3c(c2)OCO3)c2nc(-c3cccc(OC)c3OC)nc(C(N)=O)c21	2.6%
CCOc1ccc(N(C(=O)c2ccccc2F)S(=O)(=O)c2ccc3c(c2)n(C)c(=O)n3C)cc1	-9.8%
CC1=Nc2cc(C(=O)NC3CCCC3)ccc2Sc2ccc(Br)cc21	24.5%

A second format for part of the listing above.
COc1cc(C2c3c(-c4ccccc4O)n[nH]c3C(=O)N2CCO)ccc1OCc1ccccc1 (stereo unspecified)
  miR-21 reporter: 0.4%

Cc1ccc2cccc(NC(=O)c3ccc(-c4ccc(Br)cc4)o3)c2n1
  miR-21 reporter: -4.1%

COc1ccc(-c2noc(CSc3nnc(C)n3-c3ccc(OC)cc3)n2)cc1
  miR-21 reporter: 0.9%

CC1=Nc2cc(C(=O)NC3CCCC3)ccc2Sc2ccc(Br)cc21
  miR-21 reporter: 24.5%
